# PINK1 expr mod: modulators of PINK1 expression; PINK1 immunofluorescence, high-content cytometry, 24 h; Potency, µM (doses to about 76.6 µM), inactives show at the highest dose activation (PINK1 increase), most hits filed as activators; hit rate 0.2% among 410,000; AID 624263; active = well fitted activation curve with a large enough effect; inconclusive = small, poorly fitted or top-dose-only effect; inactive = flat fitted curve, though single readings scatter; cell line not stated here;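 note: potency is the fitted concentration of half-maximal effect; % of control where 0% means no effect; nearly all actives have a fitted effect of over 65% in size; a mitochondrial uncoupler was the plate control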
#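 Measures PINK1 amount and localization on or inside mitochondria by immunofluorescence. Stable cells get compounds at 5 concentrations for 24 hours before fixation and staining; CCCP controls included.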
# TRPML1 agonist: activates the human TRPML1 channel. TRPML1-expressing cells, Ca2+ dye fluorescence, FDSS; host cell line not named in the record; reference of the full effect not given here. Q9GZU1. hit rate 0.12% among 410,000. activation, % (test concentration not listed); in the data active = activation above about 50%; inconclusive = about 30% to 50%; inactive = below about 30%; note: 0% is about no effect; the text of the record puts the active cut at 80%
# Target sequence (Q9GZU1 whole entry, looked up): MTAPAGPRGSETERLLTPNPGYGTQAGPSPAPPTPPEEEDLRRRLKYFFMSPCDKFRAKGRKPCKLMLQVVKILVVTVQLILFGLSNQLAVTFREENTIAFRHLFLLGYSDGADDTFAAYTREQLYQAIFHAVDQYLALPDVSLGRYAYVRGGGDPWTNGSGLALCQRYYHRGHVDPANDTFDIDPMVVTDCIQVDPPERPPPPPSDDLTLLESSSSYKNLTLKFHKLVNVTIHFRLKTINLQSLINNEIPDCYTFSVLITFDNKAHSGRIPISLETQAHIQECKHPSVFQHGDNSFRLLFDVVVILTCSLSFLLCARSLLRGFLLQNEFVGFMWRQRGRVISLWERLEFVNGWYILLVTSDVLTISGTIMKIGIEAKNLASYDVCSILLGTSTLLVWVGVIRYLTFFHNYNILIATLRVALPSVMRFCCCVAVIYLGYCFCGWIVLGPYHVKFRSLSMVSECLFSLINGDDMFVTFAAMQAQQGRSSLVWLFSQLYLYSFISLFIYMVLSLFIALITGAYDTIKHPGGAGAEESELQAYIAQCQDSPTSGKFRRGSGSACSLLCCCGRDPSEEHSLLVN
#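 TRPML1-DL cells, Tet-induced overnight (~16 h, 37 degrees C), loaded 45-90 min at room temperature with Ca8 no-wash calcium dye plus quencher. FDSS fluorescence: 10 s baseline, compound pin-transfer, 110 s agonist read, then EC80 54-4 (4uM final) and 110 s antagonist read.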
# Starred values were filed as active, the others as inactive; u = inconclusive; & = joins results of further samples. Not all compounds are listed; rates above refer to the full screens.
# Every second line gives: TRPML1 agonist, PINK1 expr mod
- COc1ccc(CC(=O)N2CCc3cc(OC)c(OC)cc3C2COc2ccc(F)cc2)cc1 (stereo not drawn)
    3.7, -3.3%
- O=C(Nc1ccc(O)cc1)c1cccc(S(=O)(=O)N2CCOCC2)c1
    -1.2, 0.9%
- COc1ccc(CNC(=O)Cn2c(SCC(=O)Nc3ccc(C)c(C)c3)nc3ccccc32)cc1
    2.6, -2.2%
- CCCOc1cccc(C(=O)Nc2cccc(NC(=O)c3ccc(Cl)cc3Cl)c2)c1
    -0.6, 0.7%
- Cc1ccc(CNC(=O)c2ccc(CSc3nc4ccncc4n3Cc3ccc(C)cc3)cc2)cc1
    2.0, -1.0%
- O=C(Nc1ccc(Cl)c(C(F)(F)F)c1)c1ccc2c(c1)CCN2S(=O)(=O)c1ccccc1
    0.4, 7.5%
- Cc1ccc(CNC(=O)CSC2=Nc3ccccc3C3=NC(C)C(=O)N23)cc1 (stereo not drawn)
    -0.4, -0.9%
- COc1ccc(CNC(=O)CCc2nnc3n(CC(C)C)c(=O)c4ccccc4n23)cc1
    -0.6, -0.3%
- Cc1ccc(CCNc2ncnc3onc(C)c23)cc1
    -0.1, 0.3%
- COc1ccc2c(CNCCc3cccs3)c(C(=O)O)n(Cc3ccccc3)c2c1
    1.2, -0.4%
- O=S(=O)(NCc1ccccc1)c1ccc2[nH]c3c(c2c1)CCCCC3
    -0.5, 2.8%
- CCOc1ccc(CNC(=O)c2cc(=O)[nH]c3ccc(S(=O)(=O)N4CCCCC4)cc23)cc1
    -0.2, 0.2%
- CCOc1cc(C2c3c(oc4ccc(F)cc4c3=O)C(=O)N2Cc2ccco2)ccc1O (stereo not drawn)
    1.9, -0.3%
- COc1ccccc1C(=O)OCc1cc(=O)n2nc(C(C)C)sc2n1
    -0.7, -0.9%
- Cc1ccc(-n2ncc(C(=O)NC3CCN(Cc4ccccc4)CC3)c2C2CCN(C(=O)OC(C)(C)C)CC2)cc1C
    -0.5, 0.2%
- CCCCOC(=O)CSc1ncnc2sc3c(c12)CCC(C)C3 (stereo not drawn)
    0.4, -3.7%
- COc1cc(OC)c(NC(=O)Nc2sc3nc4n(c(=O)c3c2C)CCC(C)CC4)cc1Cl (stereo not drawn)
    -0.8, 7.4%
- CCCCCCCCCCC(C)(C)C(=O)Nc1c(OC)cc(OC)cc1OC
    0.3, 0.3%
- Cc1cc(C)c(NC(=O)Cc2ccc(-n3c(C)nc4cccnc43)cc2)c(C)c1
    0.0, -1.1%
- CCOc1ccc(C2C(=O)N(C3CCCCC3)CC(=O)N2Cc2ccccc2OC)cc1OC (stereo not drawn)
    0.3, 1.2%

# (continued)
# Every second line gives: TRPML1 agonist, PINK1 expr mod
- CC(C)(C)c1ccc(C(=O)N2CCN(CCc3ccccn3)CC2)cc1
    1.5, 1.2%
- Cc1ccc2c(c1)C/C(=C/c1ccc(N(C)C)cc1)C2=O
    55*, -0.5%
- COc1ccc(C(=O)NCC(c2ccco2)S(=O)(=O)c2ccc(F)cc2)cc1 (stereo not drawn)
    0.1, 0.0%
- Oc1ccccc1Nc1nc2ccccc2n2nnnc12
    3.4, 17%
- CCOc1ccccc1NC(=O)c1c(NCc2cccs2)sc2c1CCCCC2
    0.1, u
- COc1ccc(-c2cnc(C)o2)cc1S(=O)(=O)Nc1ccc(NC(C)=O)cc1
    -0.8, 1.1%
- COc1ccccc1CNC(=O)C(=O)NCC(c1cccs1)S(=O)(=O)c1ccc(F)cc1 (stereo not drawn)
    1.0, -0.8%
- S=C(NCCCCN(Cc1ccc(Cl)cc1)c1ccc(Br)cn1)NCCCc1cnc[nH]1
    2.1, -1.4%&0.7%
- COc1ccccc1OCCSc1nc(-c2ccc(C(C)(C)C)cc2)nc2cc(=O)[nH]n12
    -1.3, 0.9%
- CCN(CC)CCCNC(=O)c1nn(C)c2c1CSc1ccccc1-2
    -0.1, 2.4%
- CCN(CC)S(=O)(=O)c1nnc(NC(=O)COc2ccccc2)s1
    -0.5, 5.3%
- Cc1ccc(-n2c(=O)c3cccnc3n2CC(=O)Nc2cc(C)cc(C)c2)cc1
    -0.6, 2.6%
- COc1ccccc1NC(=O)c1cc2ccc3cccnc3c2[nH]1
    0.4, -1.9%
- Cc1ccc(Nc2c(-c3ccc(N(C)C)cc3)nc3nc[nH]n23)cc1
    0.7, 3.5%
- Cc1oc2c(c(C)cc3oc(=O)c(CC(=O)NCCc4ccccc4F)c(C)c32)c1C
    -0.5, 1.3%
- COc1ccc(C2Nc3ccccc3C(=O)N2c2cccc3ccccc23)cc1COc1c(C)cccc1C (stereo not drawn)
    -0.5, 0.5%
- CCc1ccc(N2CCn3c2nc2c3c(=O)n(Cc3c(F)cccc3Cl)c(=O)n2C)cc1
    -0.3, 0.4%
- O=C(NC1CC(=O)N(c2ccccc2)C1)c1ccco1 (stereo not drawn)
    0.1, 0.4%
- COc1ccc(C(=O)Nc2c(C(=O)c3ccc(F)cc3)oc3ccccc23)cc1
    2.0, 0.1%
- CCOC(=O)N1CCc2c(sc3c2c(=O)n(-c2ccc(F)cc2)c(=O)n3CC(=O)c2ccccc2)C1
    2.5, 0.6%

# Additional structures
# Every second line gives: TRPML1 agonist, PINK1 expr mod
- CCOc1ccc(N(CC)S(=O)(=O)N2CCCC(C(=O)NCc3ccc(SC)cc3)C2)cc1 (stereo not drawn)
    1.4, 0.4%
- CS(=O)(=O)N(Cc1ccccc1)c1ccc(C(=O)Nc2ccc(Cl)cc2)cc1
    1.5, -1.8%
- COc1ccc(-c2nc3cc(C)ccn3c2NC(=O)c2ccc(C)c(C)c2)cc1
    1.5, 0.0%
- CCC(=O)N1c2ccccc2CC1C(=O)NCCc1ccccc1 (stereo not drawn)
    -0.1, 2.1%
- Cc1ccc(C)c(Nc2nnc(-c3ccc(C)c(S(=O)(=O)NCC4CCCO4)c3)c3ccccc23)c1 (stereo not drawn)
    0.1, -0.1%
- COc1cccc(N2CCN(Cc3cc(=O)oc4cc(C)ccc34)CC2)c1
    0.6, 1.7%
- Cc1nc2c(C(=O)NCCc3ccc(Cl)cc3)cnn2c(C)c1Cc1c(F)cccc1Cl
    0.0, 1.3%
- CCCSc1ncc(Cl)c(C(=O)Nc2ccc(S(=O)(=O)N3CCCCC3C)cc2)n1 (stereo not drawn)
    0.7, 3.5%
- CCn1cc(S(=O)(=O)c2cccc(Cl)c2)c(=O)c2cc(F)c(N3CCN(c4ccccc4)CC3)cc21
    0.4, 30%
- Cc1cn2c(=O)cc(COC(=O)c3cccc(NC(=O)c4ccccc4C)c3)nc2s1
    2.2, 0.1%
- CCOC(=O)C1CCN(C(=O)c2ccc3c(c2)N=C(CC)c2cc(C)ccc2S3)CC1
    2.3, 0.8%
- CCN1C(=O)c2ccccc2Sc2ccc(NC(=O)Cc3ccc(OC)cc3)cc21
    2.8, -0.6%
- CCOC(=O)c1sc(N2C(=O)c3oc4ccc(F)cc4c(=O)c3C2c2ccc(O)cc2)nc1C (stereo not drawn)
    0.7, -0.4%
- CC(C)CN(CCCNC(=O)c1cn(C)c2ccc(S(=O)(=O)N(C)C3CCCCC3)cc2c1=O)CC(C)C
    -0.5, 0.3%
- CCCCN(CCCC)CCNC(=O)Cn1nc(CC)n2c(cc3sccc32)c1=O
    -0.1, 5.0%
- COc1ccc(NC(=O)Cn2c(=O)n(-c3ccc(C)c(C)c3)c(=O)c3c4c(sc32)CCCCC4)cc1Cl
    0.0, 0.0%
- Cc1nn(-c2ccc(F)cc2)c(-n2cccc2)c1C(=O)NCCCN1CCN(c2cccc(Cl)c2)CC1
    3.2, 4.0%
- Cc1ccc(CN2c3ccccc3S(=O)(=O)c3ccccc32)cc1
    0.7, 0.1%
- Cc1cc(NC(=O)Nc2nnc(N3CCCCCC3)s2)ccc1Br
    -0.8, -0.4%
- Cc1ccc(COC(=O)c2ccc(-c3nnn(Cc4ccc(C)cc4)n3)cc2)cc1
    1.1, -0.7%

# A different layout for part of the listing above.
Structure,TRPML1 agonist,PINK1 expr mod
COc1ccc(-c2nc3cc(C)ccn3c2NC(=O)c2ccc(C)c(C)c2)cc1,1.5,0.0%
CCC(=O)N1c2ccccc2CC1C(=O)NCCc1ccccc1 (stereo not drawn),-0.1,2.1%
Cc1ccc(C)c(Nc2nnc(-c3ccc(C)c(S(=O)(=O)NCC4CCCO4)c3)c3ccccc23)c1 (stereo not drawn),0.1,-0.1%
COc1cccc(N2CCN(Cc3cc(=O)oc4cc(C)ccc34)CC2)c1,0.6,1.7%
Cc1nc2c(C(=O)NCCc3ccc(Cl)cc3)cnn2c(C)c1Cc1c(F)cccc1Cl,0.0,1.3%

# Whole records, looked up by structure.
# COc1ccccc1OCCSc1nc(-c2ccc(C(C)(C)C)cc2)nc2cc(=O)[nH]n12 across the screens: TRPML1 agonist: -1.3; PINK1 expr mod: 0.9%
# CC(C)CN(CCCNC(=O)c1cn(C)c2ccc(S(=O)(=O)N(C)C3CCCCC3)cc2c1=O)CC(C)C across the screens: TRPML1 agonist: -0.5; PINK1 expr mod: 0.3%

# Next section.
# Every second line gives: TRPML1 agonist, PINK1 expr mod
- Cc1nn2c(=O)cc(COc3ccc(/C=C(\C#N)C(=O)Nc4ccc(F)cc4)cc3)nc2s1
    0.1, 5.0%
- Cc1ccc(N(C(=O)c2cccc(C)c2)S(=O)(=O)c2ccc(Cl)cc2)cc1
    -0.6, 9.6%
- O=C(Cc1ccc(F)cc1)NC1CC(=O)N(c2ccc3c(c2)OCCO3)C1 (stereo not drawn)
    0.4, 1.0%
- CCCCn1c(=NC(=O)c2cc3ccccc3o2)c(C(=O)OCC)cc2c(=O)n3ccccc3nc21
    2.8, u
- CCOC(=O)c1oc2c(c1C)-c1nn(Cc3cccc(Cl)c3)cc1CC2
    2.8, 1.6%
- Cc1cccc(-c2nc3c(cnn3-c3ccccc3)c(=O)n2-c2ccc(Br)cc2)c1
    1.2, -1.0%
- CC1CCCN(CCCNC(=O)c2cc(Sc3ccc(F)cc3)nc3ccccc23)C1 (stereo not drawn)
    1.6, 1.8%
- Cc1ccc(S(=O)(=O)N2CCN(c3nc(-c4ccc(CN5CCOCC5)s4)nc4ccccc34)CC2)cc1
    -0.7, 2.7%
- CCc1ccc(CNC(=O)c2ccc(CS(=O)(=O)Cc3ccccc3C)o2)cc1
    1.5, -1.1%
- CN(C(=O)CSc1nc2ccccc2n1CC(=O)N(C)c1ccc(F)cc1)c1ccccc1
    -0.1, 3.1%
- Cc1ccc(-c2noc(C(C)NC(=O)c3ccco3)n2)cc1 (stereo not drawn)
    -1.0, -0.6%
- CCCc1cc(=O)[nH]c(Nc2ccc(C)c(O)c2)n1
    0.4, 1.2%
- COc1ccc(C2Nc3ccccc3C(=O)N2Cc2ccco2)cc1OC (stereo not drawn)
    -0.4, -0.5%
- COc1ccc(NC(=O)CN2C(=O)c3cccnc3Sc3ccccc32)cc1OC
    0.8, 0.0%
- COc1ccc(Cl)cc1NC(=O)CN1Cc2ccccc2C1=O
    0.5, 0.0%
- COc1ccccc1NC(=O)c1cc2c(C)nn(-c3ccccc3)c2s1
    2.2, 3.3%
- CCOC(=O)C1(C)C=C(Nc2ccc(C(=O)O)cc2)C(=O)N1c1ccc(C(=O)O)cc1 (stereo not drawn)
    0.1, -0.8%
- CCCN1CNc2c(c(=O)[nH]c(=S)n2CCc2cccc(C)c2)C1
    -0.5, 0.7%
- COC(=O)c1sc(-c2ccccc2)cc1NC(=O)Nc1ccc(Cl)cc1
    -0.3, -0.2%
- COc1ccc(/C=C/c2cc[n+](C)c3ccccc23)cc1OC
    11, 2.3%

# Other compounds follow:
# Every second line gives: TRPML1 agonist, PINK1 expr mod
- COC(=O)CC1Oc2ccc(Cl)cc2-n2cc(-c3ccccc3)nc21 (stereo not drawn)
    3.1, 6.7%
- O=C(CCCCn1c(=O)c2ccccc2n(Cc2cccc(Cl)c2)c1=O)NCc1ccc2c(c1)OCO2
    2.3, 6.3%
- CCOC(=O)N1CCc2c(sc3c2c(=O)n(CCc2ccccc2)c(=O)n3CC(=O)Nc2ccc(C)cc2)C1
    -0.2, 0.7%
- Cc1ccc(N2CC(NC(=O)c3ccccc3Br)CC2=O)cc1 (stereo not drawn)
    -0.8, 0.0%
- Cc1cc(C(=O)N2CCN(c3cc(Cl)ccc3C)CC2)c2c(C)nn(-c3ccccc3)c2n1
    -0.3, 1.6%
- CCS(=O)(=O)N1CCc2cc(C(=O)NC(C)c3ccccc3)ccc21 (stereo not drawn)
    -0.9, -0.7%
- Cc1nn(CC(=O)N2CCCCC2)c(=O)c2cc3occc3n12
    -0.9, 2.5%
- Cc1nnc(N2CCN(C(=O)NC(C)C)CC2)c2nn(-c3ccccc3)c(C)c12
    2.5, 7.3%
- O=C(Cn1c(=O)c2sccc2n(CC(=O)Nc2ccc(Cl)cc2Cl)c1=O)NCCc1ccccc1
    0.9, -0.1%
- O=C(Cn1c(=O)ccc2cc(S(=O)(=O)N3CCCC3)ccc21)Nc1ccc(Cl)cc1
    0.0, -4.7%
- Cc1ccc2onc(CNC(=O)Nc3ccccc3C#N)c2c1
    -0.2, 5.1%
- COc1cc(OC)c(NC(=O)C2=C(C)C(=O)OC23CCN(C(C)=O)CC3)cc1Cl
    -0.2, 0.2%
- Cc1cc(OCC(=O)Nc2cccc(-c3nc4ccccc4o3)c2C)cc(C)c1Cl
    -0.4, -0.2%
- Cc1cc(C)c2c(CC(=O)Nc3ccc(F)cc3)coc2c1
    2.3, 2.7%
- Cc1oc2c(c1C(=O)Nc1ccc(OC(F)(F)F)cc1)C1=NCCN1C=N2
    0.1, 1.4%
- COc1ccc(CCC(=O)NC2CC(=O)N(c3ccc(C)c(C)c3)C2)cc1 (stereo not drawn)
    -1.1, 0.9%
